nsP2pro inh = Primary qHTS for inhibitors of NSP2Pro chikungunya virus (CHIKV); Polyprotein P1234 (Chikungunya virus (strain S27-African prototype)), Q8JUX6; FRET peptide cleavage, nsP2pro, fluorescence 1 h; Potency, µM (titrated, usually from 24.9 µM), for inactives: at the top dose activity change, negative = inhibition, actives largely listed as inhibitors; hit rate 1.1% among 31,000; AID 1964107, 2024; active means well fitted inhibition curve with a large enough effect; inconclusive means small, poorly fitted or top-dose-only effect; inactive means no such curve, though single readings can be large or run the other way; further: nearly all actives have a fitted effect of over 60% in size; a reference inhibitor and vehicle were the controls
Target sequence (Q8JUX6 whole entry, looked up): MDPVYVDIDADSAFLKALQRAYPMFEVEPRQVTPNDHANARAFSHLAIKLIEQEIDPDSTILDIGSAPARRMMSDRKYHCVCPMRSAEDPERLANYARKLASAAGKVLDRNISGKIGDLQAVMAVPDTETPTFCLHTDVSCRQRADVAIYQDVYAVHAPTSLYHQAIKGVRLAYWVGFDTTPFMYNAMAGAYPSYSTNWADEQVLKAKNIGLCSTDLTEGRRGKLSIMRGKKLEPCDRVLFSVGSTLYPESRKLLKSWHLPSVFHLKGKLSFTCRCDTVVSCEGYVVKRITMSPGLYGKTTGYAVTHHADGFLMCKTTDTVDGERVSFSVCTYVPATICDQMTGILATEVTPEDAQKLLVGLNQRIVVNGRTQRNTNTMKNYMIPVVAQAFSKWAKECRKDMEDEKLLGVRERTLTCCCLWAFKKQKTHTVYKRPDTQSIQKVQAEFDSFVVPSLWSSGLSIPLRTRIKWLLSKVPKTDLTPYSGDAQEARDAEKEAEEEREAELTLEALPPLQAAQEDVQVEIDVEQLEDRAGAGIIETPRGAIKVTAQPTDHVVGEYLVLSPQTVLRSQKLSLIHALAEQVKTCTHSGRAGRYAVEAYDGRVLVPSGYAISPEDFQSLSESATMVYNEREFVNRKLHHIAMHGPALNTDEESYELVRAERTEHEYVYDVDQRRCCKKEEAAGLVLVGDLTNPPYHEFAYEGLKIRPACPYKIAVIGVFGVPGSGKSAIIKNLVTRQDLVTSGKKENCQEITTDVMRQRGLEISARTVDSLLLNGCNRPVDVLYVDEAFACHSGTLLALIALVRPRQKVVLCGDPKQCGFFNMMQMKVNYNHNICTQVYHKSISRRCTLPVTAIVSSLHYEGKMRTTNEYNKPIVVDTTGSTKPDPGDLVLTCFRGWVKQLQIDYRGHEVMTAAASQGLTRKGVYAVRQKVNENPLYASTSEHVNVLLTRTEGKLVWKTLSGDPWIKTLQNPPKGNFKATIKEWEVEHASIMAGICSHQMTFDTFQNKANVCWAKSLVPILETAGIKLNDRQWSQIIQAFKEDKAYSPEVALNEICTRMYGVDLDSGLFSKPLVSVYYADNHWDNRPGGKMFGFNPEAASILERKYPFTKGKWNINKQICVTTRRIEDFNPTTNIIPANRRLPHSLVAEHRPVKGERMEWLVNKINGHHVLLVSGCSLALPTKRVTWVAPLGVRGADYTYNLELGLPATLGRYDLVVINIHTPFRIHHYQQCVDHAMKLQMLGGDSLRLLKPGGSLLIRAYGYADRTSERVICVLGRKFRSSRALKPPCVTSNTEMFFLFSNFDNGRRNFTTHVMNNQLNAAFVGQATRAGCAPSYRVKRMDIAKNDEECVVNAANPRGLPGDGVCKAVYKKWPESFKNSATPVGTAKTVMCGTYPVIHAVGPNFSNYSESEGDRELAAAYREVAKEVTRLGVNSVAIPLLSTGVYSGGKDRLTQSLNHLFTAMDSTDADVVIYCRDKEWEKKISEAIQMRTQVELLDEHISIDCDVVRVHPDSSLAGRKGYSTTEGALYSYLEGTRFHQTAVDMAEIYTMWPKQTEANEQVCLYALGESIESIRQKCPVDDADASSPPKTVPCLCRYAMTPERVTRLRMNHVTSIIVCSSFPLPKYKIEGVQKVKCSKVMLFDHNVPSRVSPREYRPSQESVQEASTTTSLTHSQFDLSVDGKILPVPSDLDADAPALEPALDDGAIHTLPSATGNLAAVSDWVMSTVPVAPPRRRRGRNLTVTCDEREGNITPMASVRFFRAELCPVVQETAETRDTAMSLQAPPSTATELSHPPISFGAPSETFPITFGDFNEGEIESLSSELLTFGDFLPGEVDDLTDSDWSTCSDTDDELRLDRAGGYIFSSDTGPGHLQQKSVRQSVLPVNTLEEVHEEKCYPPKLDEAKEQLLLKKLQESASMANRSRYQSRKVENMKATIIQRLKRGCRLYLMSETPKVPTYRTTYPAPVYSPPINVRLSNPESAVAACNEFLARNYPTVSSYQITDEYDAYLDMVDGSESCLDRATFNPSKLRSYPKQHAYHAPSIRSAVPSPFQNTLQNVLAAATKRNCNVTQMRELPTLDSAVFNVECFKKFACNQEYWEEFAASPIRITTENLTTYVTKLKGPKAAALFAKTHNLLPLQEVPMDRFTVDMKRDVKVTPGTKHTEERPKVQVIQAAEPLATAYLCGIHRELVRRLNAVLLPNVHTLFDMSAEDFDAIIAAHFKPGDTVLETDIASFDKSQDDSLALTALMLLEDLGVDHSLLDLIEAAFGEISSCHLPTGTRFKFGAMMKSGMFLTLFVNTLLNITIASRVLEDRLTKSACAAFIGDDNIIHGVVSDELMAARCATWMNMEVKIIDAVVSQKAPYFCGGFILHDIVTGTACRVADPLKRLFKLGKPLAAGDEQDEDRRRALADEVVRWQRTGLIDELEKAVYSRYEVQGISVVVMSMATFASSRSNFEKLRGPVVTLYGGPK
* marks the source's active call; other numbers are inactive results; & = joins results of further samples; [ ] = another dose, or the depositor's remark. On the % scale 0 is the no-effect control and ±100 the full control effect; potency means the concentration at half of the fitted maximal effect. Not all compounds are listed; rates above refer to the full screens.

Screening CCNC(=O)[C@H]1CCCN1C(=O)[C@H](CCCN=C(N)N)NC(=O)[C@H](CC(C)C)NC(=O)[C@H](CC(C)C)NC(=O)[C@@H](Cc1ccc(O)cc1)NC(=O)[C@H](CO)NC(=O)[C@@H](Cc1c[nH]c2ccccc12)NC(=O)[C@H](Cc1cnc[nH]1)NC(=O)[C@@H]1CCC(=O)N1 returned nsP2pro inh 68%[activator][10 µM].
CN1C(C(=O)Nc2ccc(OC(F)(F)F)cc2)=CC(c2cccs2)=NS1(=O)=O was read as nsP2pro inh -15%.
Screening O=C(CCCCCCCCC#CI)Oc1ccccc1 returned nsP2pro inh -11%.
Screening COc1cccc(CNC(=O)CCNc2cnc3cnccn23)c1 returned nsP2pro inh inactive.
CCNC(=O)N[C@@H]1C=C[C@@H](c2c(C)nn(-c3ccc(OC)cc3)c2C)C1 was read as nsP2pro inh 0%[39.2 µM].
CCN(CC)c1ccc(NC(=O)Cn2ncc3c(C)n(Cc4ccccc4F)c(C)c3c2=O)c(C)c1 was read as nsP2pro inh -28%.
For Cn1c(=O)[nH]c(=O)c2c1nc1n(CCO)c(-c3ccccc3)cn21 the results were nsP2pro inh inconclusive.
CCCn1c(C)nc2c(NCCN3CCOCC3)nc(C)nc21 was read as nsP2pro inh inconclusive.
`CCCn1c(C)cnc1CC1CCN(S(=O)(=O)CCC)CC1` gave nsP2pro inh inactive.
For O=C(NCCc1ccc(OCC(F)(F)F)c(OCC(F)(F)F)c1)c1cc2sccc2n1Cc1ccccc1 the results were nsP2pro inh -13%.

A draw from above in order of molar mass, lowest first.
Screening COc1cccc(CNC(=O)CCNc2cnc3cnccn23)c1 returned nsP2pro inh inactive.
CCNC(=O)N[C@@H]1C=C[C@@H](c2c(C)nn(-c3ccc(OC)cc3)c2C)C1 was read as nsP2pro inh 0%[39.2 µM].
Screening O=C(CCCCCCCCC#CI)Oc1ccccc1 returned nsP2pro inh -11%.
CCN(CC)c1ccc(NC(=O)Cn2ncc3c(C)n(Cc4ccccc4F)c(C)c3c2=O)c(C)c1 was read as nsP2pro inh -28%.

Additional entries:
Screening CC(=O)NCCc1ncc(C)n1C1CCCC1 returned nsP2pro inh -9%.
For CCNC(=O)[C@H]1O[C@H](n2cnc3c(NCC(c4ccccc4)c4ccccc4)nc(C(=O)NCCNC(=O)NC4CCN(c5ccccn5)CC4)nc32)[C@H](O)[C@@H]1O the results were nsP2pro inh 51%[activator].
Screening COc1ccc(-c2cnn3c(C)cc(C)nc23)cc1OC returned nsP2pro inh -20%.
CC(C)c1ccc(N2C[C@]34C=C[C@H](O3)C(C(=O)N3CCSCC3)C4C2=O)cc1 (stereo partly drawn) was read as nsP2pro inh -13%.
Screening COc1cccc(CNC(=O)Nc2cccc(-c3ccc(N4CCCCC4)nn3)c2)c1 returned nsP2pro inh 0%.
Screening Cc1noc2ncnc(N3CCCC(C(=O)Nc4cccc(C(F)(F)F)c4)C3)c12 (stereo not drawn) returned nsP2pro inh -10%.
For Cc1cccc(C(=O)N2C[C@H]3OC(=O)N(CCCN4CCOCC4)[C@H]3C2)c1 the results were nsP2pro inh 2%.
For CC(=O)c1ccccc1-c1ncc(C)c(NCc2ccc(-c3cccnc3)cc2)n1 the results were nsP2pro inh 2%.
CC1(C)CCC(CN2CCN(c3ccc(C(=O)NS(=O)(=O)c4ccc(NCC5CCOCC5)c([N+](=O)[O-])c4)c(Oc4cnc5[nH]ccc5c4)c3)CC2)=C(c2ccc(Cl)cc2)C1 was read as nsP2pro inh inconclusive.
`COc1cc(OC)cc(C(=O)Nc2cc(-c3nc4cc(Cl)ccc4o3)ccc2Cl)c1` gave nsP2pro inh -23%.
CC(C)=CCC[C@](C)(O[C@@H]1O[C@H](CO)[C@@H](O)[C@H](O)[C@H]1O)[C@H]1CC[C@]2(C)[C@@H]1[C@H](O)CC1[C@@]3(C)CC[C@H](O)C(C)(C)C3[C@@H](O[C@@H]3O[C@H](CO)[C@@H](O)[C@H](O)[C@H]3O[C@@H]3OC[C@@H](O)[C@H](O)[C@H]3O)C[C@]12C (stereo partly drawn) was read as nsP2pro inh 9%[5.1 µM].
`COc1ccc(CNC(=O)c2nc(SC(C)C)ncc2Cl)cc1` gave nsP2pro inh -9%.
`Cn1cccc1C(=O)C(=O)N1C[C@H](c2cc(F)cc(F)c2)[C@@H]2[C@H]1C1CCN2CC1` gave nsP2pro inh inactive.
`COC(=O)N(C)Cc1cccc(N2CCN(C(=O)OC(C)(C)C)CC2)c1F` gave nsP2pro inh 2%.
COc1ccc(CCC(=O)N2CCC3(CC2)CC(Cc2nc(-c4cnccn4)no2)CCO3)cc1 (stereo not drawn) was read as nsP2pro inh 3%.
`Cc1nnc(N2CCCC(C(=O)NCCc3ccc(Cl)cc3)C2)c2nn(-c3ccccc3)c(C)c12` (stereo not drawn) gave nsP2pro inh -15%.
For COc1ccc(-c2ccnc3c2c(=O)n(C)c(=O)n3C)cc1OC the results were nsP2pro inh -12%.
For CC(C)(C)C(=O)Nc1cccc(C(=O)OCc2cc(=O)n3nc(C4CCCCC4)sc3n2)c1 the results were nsP2pro inh -23%.
Screening CN1CCCCCCN(C(=O)NCc2ccccc2)CCC1=O returned nsP2pro inh -1%.
`CCCCC(=O)N(Cc1ccc(-c2ccccc2-c2nn[nH]n2)cc1)[C@H](C(=O)O)C(C)C` gave nsP2pro inh -10%&-13%&-1%.
For CC(CNC(=O)c1ccc(Cn2c(SCc3ccccc3)nc3cccnc32)cc1)c1ccccc1 (stereo not drawn) the results were nsP2pro inh -3%.
`O=C(Nc1cccc(C(F)(F)F)c1)[C@@H]1CCCN1c1ccnc2ccnn12` gave nsP2pro inh inactive.
For CN(C)CCN1C(=O)c2ccccc2N(C)c2ccccc21 the results were nsP2pro inh 3%.
Screening NC(=O)C1CCN(c2nc(-c3cccc4sc5ccccc5c34)cs2)CC1 returned nsP2pro inh -17%.
NC(=S)NS(=O)(=O)c1ccc(N)cc1 was read as nsP2pro inh -2%.
Screening COc1ccc(S(=O)(=O)NCC2Cn3cccc3C(=O)N2Cc2ccccc2)cc1 (stereo not drawn) returned nsP2pro inh inactive.
For Cc1ccc(CN2CCSc3ccc(C(=O)Nc4cc(C)cc(C)c4)cc32)cc1 the results were nsP2pro inh -18%.
`Cc1ccc(Sc2ccc(N3CCC(C(=O)Nc4ccc(C)c(F)c4)CC3)nn2)cc1` gave nsP2pro inh -25%.
COc1ccc(C2Cn3nnc(-c4noc(C5CCC5)n4)c3CO2)cc1 (stereo not drawn) was read as nsP2pro inh 0%.
Screening CCn1cc(S(=O)(=O)N2CCC(c3noc(-c4ccncc4)n3)C2)cn1 (stereo not drawn) returned nsP2pro inh inactive.

Reprinted at random: two entries already listed
CCN(CC)c1ccc(NC(=O)Cn2ncc3c(C)n(Cc4ccccc4F)c(C)c3c2=O)c(C)c1 was read as nsP2pro inh -28%.
CCCn1c(C)nc2c(NCCN3CCOCC3)nc(C)nc21 was read as nsP2pro inh inconclusive.

Next part:
Screening C[C@@H](Oc1cc(-c2cnn(C3CCNCC3)c2)cnc1N)c1c(Cl)ccc(F)c1Cl returned nsP2pro inh 166%&113%[activator].
Screening Cc1ccc(C)c(N2CCN(C(=O)C3CCN(S(=O)(=O)c4ccc5[nH]c(=O)oc5c4)CC3)CC2)c1 returned nsP2pro inh 5%.
For COc1cccc(NC(=O)c2sc3nc(N4CCOCC4)c4c(c3c2N)CC(C)(C)OC4)c1 the results were nsP2pro inh -19%.
Cc1ccc(N2CCN(C(=O)c3cnc(N4CCCCC4)c4ccccc34)CC2)c(C)c1 was read as nsP2pro inh 9%.
For O=C(O)Cc1ccccc1Oc1ccc(Cl)cc1Cl the results were nsP2pro inh -10%.
For CC[C@H]1OC(=O)C[C@@H](O)[C@H](C)[C@@H](OC2OC(C)C(O)C(N(C)C)C2O)[C@@H](CCN2CCCCC2)C[C@@H](C)C(=O)/C=C/C(C)=C/[C@@H]1CN1CCCCC1 (stereo partly drawn) the results were nsP2pro inh 10%.
`COc1ccc(N2CC(NC(=O)C(c3ccccc3)c3ccccc3)CC2=O)cc1OC` (stereo not drawn) gave nsP2pro inh -7%.
`Clc1ccc(Nc2nnc(Cc3ccncc3)c3ccccc23)cc1` gave nsP2pro inh inconclusive.
Cc1ccc2c(CC(=O)N(Cc3cccc(Cl)c3)C3CCS(=O)(=O)C3)coc2c1 (stereo not drawn) was read as nsP2pro inh -16%.
Screening Cn1nc2n(c1=O)CCN(C(=O)c1ccc(F)cc1F)CC2 returned nsP2pro inh 4%.
O=c1c2sc3ccccc3c2n(Cc2ccc(F)cc2Cl)c(=O)n1Cc1ccccc1 was read as nsP2pro inh -13%.
Screening O=C(CNC(=O)c1ccccc1Cl)OC(C(=O)Nc1cc(C(F)(F)F)ccc1Cl)c1ccccc1 (stereo not drawn) returned nsP2pro inh inactive.
Screening CCn1c(CN2CCN(C)CC2)nc2ccccc21 returned nsP2pro inh -10%.
COc1ccc(CCNC(=O)CCS(=O)(=O)c2ccc3c(c2)oc(=O)n3C)cc1OC was read as nsP2pro inh -10%.
`Cc1cc(NC(=O)CSc2nc3c([nH]c4ccccc43)c(=O)n2-c2ccccc2F)no1` gave nsP2pro inh -23%.
O=[S+]([O-])(c1cc2ccccc2o1)N1CCN([S+](=O)([O-])c2c(F)cccc2F)CC1 was read as nsP2pro inh -5%.
`N#Cc1ccnc(N2C(=O)CC[C@H]2C(=O)N(c2cncc(F)c2)[C@@H](C(=O)NC2CC(F)(F)C2)c2ccccc2Cl)c1` gave nsP2pro inh -9%.
For CO/N=C(/C(=O)N[C@@H]1C(=O)N2C(C(=O)O)=CCS[C@H]12)c1csc(N)n1 the results were nsP2pro inh inconclusive.
Screening CSc1ccc(CCNC(=O)NCc2noc3ccccc23)cc1 returned nsP2pro inh -19%.
CC(C)CCN1C(=O)c2ccccc2CC1(C)C(=O)NC1CCC(C)CC1 (stereo not drawn) was read as nsP2pro inh -28%.
COc1ccc(N2CC3CCC(C2)N3C(=O)NC(C)C)cc1 was read as nsP2pro inh -21%.
Screening CCC(Oc1ccccc1-c1nnc(-c2ccccc2)o1)C(=O)Nc1ccc(C(C)=O)cc1 (stereo not drawn) returned nsP2pro inh inconclusive.
Screening C[C@@H](CO)NC(=O)[C@@H]1C=C2c3cccc4[nH]cc(c34)C[C@H]2N(C)C1 returned nsP2pro inh -21%.
O=c1c2oc3ccccc3c2ncn1Cc1ccc(Br)cc1 was read as nsP2pro inh -30%.
For Oc1ccc(/C=C/c2ccccc2F)c2cccnc12 the results were nsP2pro inh inactive.
Cc1cc(C)cc(N2CCC(NS(=O)(=O)c3cn(C)c(C)n3)C2=O)c1 (stereo not drawn) was read as nsP2pro inh inactive.
`Clc1ccc(C(c2ccc(Cl)cc2)C(Cl)(Cl)Cl)cc1` gave nsP2pro inh 1%.
Screening COC(=O)c1[nH]c(=O)c2ccccc2c1-c1ccc[nH]1 returned nsP2pro inh 9%.
Screening O=C1CCN(C(=O)Cc2ccccc2)CCCOCCN1 returned nsP2pro inh 0%.
For C=C1C(=O)O[C@@H]2[C@H]1[C@H](O)C[C@]1(C)[C@@H](O)CC=C(C)[C@@H]21 the results were nsP2pro inh inconclusive.

Copied from above for reference:
Screening CCNC(=O)[C@H]1CCCN1C(=O)[C@H](CCCN=C(N)N)NC(=O)[C@H](CC(C)C)NC(=O)[C@H](CC(C)C)NC(=O)[C@@H](Cc1ccc(O)cc1)NC(=O)[C@H](CO)NC(=O)[C@@H](Cc1c[nH]c2ccccc12)NC(=O)[C@H](Cc1cnc[nH]1)NC(=O)[C@@H]1CCC(=O)N1 returned nsP2pro inh 68%[activator][10 µM].
CN1C(C(=O)Nc2ccc(OC(F)(F)F)cc2)=CC(c2cccs2)=NS1(=O)=O was read as nsP2pro inh -15%.

Other entries.
`O=C(O)c1cc(F)c(S(=O)(=O)N2CCN(S(=O)(=O)c3ccc4c(c3)OCCO4)CC2)cc1F` gave nsP2pro inh inconclusive.
`CN(C)c1cc2c(cc1Sc1nc3c(N)nccc3n1CCNCC(C)(C)C)OCO2` gave nsP2pro inh 32%.
For Cn1cnc(CCNc2ncnc3ccc(-c4ccc5c(c4)OCO5)cc23)c1 the results were nsP2pro inh inactive.
Cc1c(Cl)cccc1NC(=O)c1cc2sccc2n1Cc1ccc(F)cc1 was read as nsP2pro inh 7.9µM*.
`CN1CCN(c2cccc(Nc3nn4c(=O)c5ccc(N(C)C)cc5nc4s3)c2)CC1` gave nsP2pro inh inconclusive.
Screening CCC(=O)OCC(=O)[C@@]1(OC(=O)CC)[C@@H](C)C[C@H]2[C@@H]3CCC4=CC(=O)C=C[C@]4(C)[C@@]3(F)[C@@H](O)C[C@@]21C returned nsP2pro inh -8%&-3%.
Screening CCCS(=O)(=O)N1Cc2c(ncn2Cc2ccc(Cl)cc2)C[C@H]1C(=O)OC returned nsP2pro inh inactive.
For O=C(Nc1ccc(Cl)c(S(=O)(=O)N2CCOCC2)c1)c1ccc(S(=O)(=O)N2CCCCC2)cc1 the results were nsP2pro inh -6%.
`CC(=O)c1ccc(N2CCN(S(=O)(=O)c3ccc4c(c3)CCCN4C(C)=O)CC2)cc1` gave nsP2pro inh -7%.
CC(=O)N1CCc2c(sc3nc(SCC(C)C)n(-c4ccc(C)c(Cl)c4)c(=O)c23)C1 was read as nsP2pro inh -23%.
`CCC(C)(NC(=O)C(CCC(N)=O)NC(=O)C1CC(O)CN1C(=O)C(C)(C)NC(=O)C(C)(C)NC(=O)C(CC(C)C)NC(=O)CNC(=O)C(NC(=O)C(C)(C)NC(=O)C(C)(C)NC(=O)C(C)(C)NC(=O)C(Cc1ccccc1)NC(C)=O)C(C)C)C(=O)N1CC(O)CC1C(=O)NC(C)(C)C(=O)NC(CO)Cc1ccccc1` (stereo not drawn) gave nsP2pro inh 26%[5.1 µM].
Screening Cc1ccc(S(=O)(=O)Nc2cc(Cl)c(O)c3ccccc23)c(C)c1 returned nsP2pro inh 2.5µM*.
O=S(=O)(Nc1cccc2ccccc12)c1ccc(NCc2cccc(Cl)c2O)cc1 was read as nsP2pro inh -26%.
